2A StopGo – FMDV 2A StopGo reporter, luciferase signal. human cells with a luciferase reporter of 2A StopGo recoding; control for the full effect not named in the record. Potency, µM (series often up to 57.9 µM), for the others: top-dose signal change, negative = less light. actives 1.2% (n = 410,000). AID 1159524; active = well fitted falling curve with a large enough effect; inconclusive = small, poorly fitted or top-dose-only effect; inactive = no such curve, though single readings can be large or run the other way; tested in HEK293T cells; note: % is set by controls: 0 for no effect and ±100 for the full control effect; nearly all actives have a fitted effect of over 45% in size; luciferase light after 4 h
SARS PLpro yeast – inhibitors of SARS-CoV papain-like protease in yeast | S. cerevisiae expressing SARS-CoV PLpro, growth rescue; control for the full effect not named in the record | Potency, µM (titrated, usually from 32.9 µM), for the others: top-dose activity, positive = growth rescue | actives 0.19% (n = 330,000); note: 0% is about no effect; nearly all actives have a fitted effect of over 55% in size; growth read by luminescence after 48 h
Cruzain inh Det – cruzain (T. cruzi) inhibition with detergent; actives 0.43% (n = 200,000); purified cruzain, Z-FR-AMC fluorescence, 0.01% Triton; Potency, µM, for inactives: max response, negative = inhibition, hits mostly inhibitors; P25779; active = well fitted curve in the direction sought with a large enough effect; inconclusive = small, poorly fitted or top-dose-only effect, or another doubt; inactive = no such curve, though single readings can be large; an effect the other way counts as inactive or inconclusive;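 note: plate controls were neutral wells for no effect and buffer without enzyme for full effect; nearly all actives have a fitted effect of over 40% in size; top concentration of the series not given in the record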
Target sequence (P25779 123-467 limits assumed): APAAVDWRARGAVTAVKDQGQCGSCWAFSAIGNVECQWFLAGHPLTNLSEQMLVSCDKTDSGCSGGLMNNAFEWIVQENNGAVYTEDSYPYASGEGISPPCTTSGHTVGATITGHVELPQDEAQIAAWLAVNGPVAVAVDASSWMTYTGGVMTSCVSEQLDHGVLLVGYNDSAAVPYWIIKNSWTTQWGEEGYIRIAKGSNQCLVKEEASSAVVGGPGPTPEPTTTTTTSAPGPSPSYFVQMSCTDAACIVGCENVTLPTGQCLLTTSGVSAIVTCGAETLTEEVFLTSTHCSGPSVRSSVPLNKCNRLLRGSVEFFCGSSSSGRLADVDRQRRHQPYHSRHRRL
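In this qHTS format, compounds are incubated with 1.5 nM cruzain for 15 min at room temperature before 2 uM Z-FR-AMC is added. Release of AMC is followed at 360/450 nm, and progress is taken as the 60 s fluorescence difference.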
LASV entry inh – blocks Lassa virus binding to or entry into cells; actives 1.2% (n = 300,000); Lassa virus pseudotype entry inhibition, cell reporter; control for the full effect not named in the record; Potency, µM (top dose mostly 37.9 µM), without a hit: top-dose activity change, negative = inhibition, most hits filed as inhibitors; active means well fitted inhibition curve with a large enough effect; inconclusive means small, poorly fitted or top-dose-only effect, or effect the other way; inactive means flat fitted curve, though single readings scatter; tested in HEK293 cells; note: % is set by controls: 0 for no effect and ±100 for the full control effect; nearly all actives have a fitted effect of over 50% in size; luciferase read-out
Cruzain noTriton – blocks cruzain activity in detergent-free assay; purified cruzain, Z-FR-AMC fluorescence, no detergent; Potency, µM, for the others: max response, negative = inhibition, most hits filed as inhibitors; actives 2.3% (n = 200,000); AID 1476; active = well fitted curve in the direction sought with a large enough effect; inconclusive = small, poorly fitted or top-dose-only effect, or another doubt; inactive = no such curve, though single readings can be large; an effect the other way counts as inactive or inconclusive;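 note: plate controls were enzyme without inhibitor for no effect and buffer without enzyme for full effect; nearly all actives have a fitted effect of over 40% in size; top concentration of the series not given in the record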
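Purified cruzain at 1.5 nM, pre-incubated 15 min with compound at room temperature in 100 mM sodium acetate pH 5.5, 5 mM DTT, 0.00005% Triton X-100. Reaction started with 2 uM Z-FR-AMC; AMC fluorescence increase over 60 s gives rate.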
RE007 growth inh – less growth of the S. pombe RE007 Vpr strain; S. pombe RE007 Vpr strain, BacTiter-Glo ATP luminescence, 24 h; control for the full effect not named in the record; Potency, µM (series often up to 92.2 µM), without a hit: at the highest dose activity change, negative = less growth; actives 0.21% (n = 360,000); AID 651644; active = well fitted falling curve with a large enough effect; inconclusive = small, poorly fitted or top-dose-only effect; inactive = no such curve, though single readings can be large or run the other way;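 note: % is set by controls: 0 for no effect and ±100 for the full control effect; nearly all actives have a fitted effect of over 50% in size; the assay follows cell death caused by Vpr and the record does not say whether a fall means rescue or toxicity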
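Fission yeast strain RE007, carrying one chromosomally integrated HIV-1 vpr copy, was seeded at OD 0.01 in PMG+AL medium with 23 nL pinned compound. After 24 h at 30 °C and 99% humidity, viability was read by BacTiter-Glo luminescence.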
MARV entry inh – Marburg virus entry inhibition. Marburg virus pseudotyped entry inhibition, cell reporter; control for the full effect not named in the record; about a third of the inactives were read at about 46 µM. Potency, µM (doses to about 37.8 µM), for the others: at the highest dose activity change, negative = inhibition, actives largely listed as inhibitors. actives 1.8% (n = 300,000). AID 540276; active = well fitted inhibition curve with a large enough effect; inconclusive = small, poorly fitted or top-dose-only effect, or effect the other way; inactive = flat fitted curve, though single readings scatter; tested in HEK293 cells; about a fifth of its hits are not listed in these tables; note: % is set by controls: 0 for no effect and ±100 for the full control effect; luciferase read-out
NS1 inh – influenza NS1 inhibition; actives 0.4% (n = 270,000); Potency, µM (series often up to 46.1 µM), inactives show top-dose activity, positive = more growth; S. cerevisiae slowed by influenza A NS1, growth recovery by OD600; note: actives are rising curves; nearly all actives have a fitted effect of over 50% in size
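Compounds were scored for reversing the slow growth caused by influenza A NS1 in S. cerevisiae, measured by optical density at 600 nm. Assay medium contained 2% galactose at pH 6.0; NS1-free yeast of the same strain were the positive control.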
Numbers without * were called inactive; & = joins results of further samples; [ ] = dose if it differs, or a comment. Unless noted, calls come from the whole dose curve; as a rule, active means well fitted rising curve with a large enough effect; inconclusive means small, poorly fitted or top-dose-only effect; inactive means no such curve, though single readings can be large or run the other way. Potency is the fitted concentration of half-maximal effect. Outcome played no part in choosing rows. Share with any hit: about 4.8%.

`Cc1ccc(S(=O)(=O)CC(=O)Nc2ccc3nc(C)sc3c2)cc1` gave 2A StopGo 18%, SARS PLpro yeast 1%, RE007 growth inh 6% and NS1 inh -6%.
Screening Clc1ccc(CSc2nnc(Cn3cnc4ccccc43)o2)cc1 returned 2A StopGo inconclusive, SARS PLpro yeast -12%, Cruzain inh Det -6.2%, LASV entry inh inconclusive, Cruzain noTriton 2%, RE007 growth inh 19%, MARV entry inh inconclusive and NS1 inh -42%.
CCCOc1ccc(Cc2c(COCC)[nH]c(=S)[nH]c2=O)cc1 was read as 2A StopGo -6%, SARS PLpro yeast 0%, LASV entry inh -7%, RE007 growth inh 2%, MARV entry inh inconclusive and NS1 inh 3%.
CC(C)CC(=O)N1CCN(Cc2cccc(F)c2)CC1 was read as 2A StopGo 5%, SARS PLpro yeast -2%, Cruzain inh Det 4.4%, LASV entry inh -6%, Cruzain noTriton -1%, RE007 growth inh -12%, MARV entry inh 25% and NS1 inh 0%.
Screening Cc1ccc(NC(=O)CSc2nnc(NC(=O)C3CC3)s2)cc1 returned 2A StopGo -22%, SARS PLpro yeast 1%, LASV entry inh 0%, RE007 growth inh 15%, MARV entry inh 14% and NS1 inh -6%.
Screening Cc1ccc(/C=C2\SC(=S)N(/N=C/c3cc([N+](=O)[O-])ccc3O)C2=O)o1 returned 2A StopGo 11%, SARS PLpro yeast 3%, LASV entry inh -26%, RE007 growth inh inconclusive and MARV entry inh 5%.
`Cc1cccc(NC(=S)N2CCN(C(=O)C3CCCO3)CC2)c1` (stereo not given) gave 2A StopGo -10%, SARS PLpro yeast 10%, Cruzain inh Det -0.5%, LASV entry inh 13%, Cruzain noTriton 5%, RE007 growth inh -22%, MARV entry inh 19% and NS1 inh -10%.
For COc1ccc(CCn2c(O)cc3nn(-c4nc5ccccc5s4)c(=O)c-3c2C)cc1 the results were 2A StopGo 23%, SARS PLpro yeast 0%, LASV entry inh -2%, RE007 growth inh -11%, MARV entry inh -29%&-29%[46.1 µM] and NS1 inh inconclusive.
COc1ccccc1N1CCN(c2ncc(C(=O)N3CCN(c4cccc(Cl)c4)CC3)c3ccccc23)CC1 was read as 2A StopGo inconclusive, SARS PLpro yeast 0%, LASV entry inh 3%[46.1 µM], RE007 growth inh 4% and MARV entry inh inconclusive.
COc1ccccc1CC(=O)Nc1sc2c(c1C(N)=O)CCCC2 was read as 2A StopGo -14%, SARS PLpro yeast 6%, LASV entry inh inconclusive, RE007 growth inh -6%, MARV entry inh -20%[46.1 µM] and NS1 inh -8%.
`CCOC(=O)C1(Cc2ccccc2C)CCCN(C(=O)c2ccccn2)C1` (stereo not given) gave 2A StopGo 26%, SARS PLpro yeast -3%, LASV entry inh 3%[46.1 µM], RE007 growth inh 9%, MARV entry inh -7%[46.1 µM] and NS1 inh 2%.
Screening COc1cccc(COC(=O)c2cc(=O)[nH]c3ccc(S(=O)(=O)N4CCOCC4)cc23)c1OC returned 2A StopGo -14%, SARS PLpro yeast -1%, LASV entry inh 2%, RE007 growth inh -11% and MARV entry inh -4%.
`Cc1onc(-c2ccccc2)c1C(=O)NCC1COc2ccccc2O1` (stereo not given) gave 2A StopGo -20%, SARS PLpro yeast 0%, Cruzain inh Det -2.0%, LASV entry inh 0%, Cruzain noTriton -7%, RE007 growth inh 6%, MARV entry inh 6%[46.1 µM] and NS1 inh -7%.
For CCCOCC1CC(CCc2nc(=S)[nH][nH]2)C(=O)O1 (stereo not given) the results were 2A StopGo 0%, SARS PLpro yeast 3%, Cruzain inh Det -1.9%, LASV entry inh 0%, Cruzain noTriton -7%, RE007 growth inh -6%, MARV entry inh 2% and NS1 inh 27%.
For Cc1cc2cc(CNC(=O)C3CCCC3)ccc2n1C the results were 2A StopGo 36%[activator], SARS PLpro yeast -2%, RE007 growth inh -10%, MARV entry inh 7% and NS1 inh -1%.
`O=C1Nc2ccccc2N(O)N1c1ccc(S(=O)(=O)Nc2ccccn2)cc1` gave 2A StopGo 2%, SARS PLpro yeast 3%, LASV entry inh 1%, RE007 growth inh 2% and MARV entry inh 13%.
For COc1cc2c(cc1OC)CN(Cc1ccc(F)cc1)CC2 the results were 2A StopGo -21%, SARS PLpro yeast 0%, LASV entry inh -21%, RE007 growth inh -10%, MARV entry inh 4%[46.1 µM] and NS1 inh 4%.
O=C(Cn1ccc2cc(S(=O)(=O)N3CCCCCC3)ccc21)NCc1cccc(Cl)c1 was read as 2A StopGo 15%, Cruzain inh Det -4.5%, LASV entry inh -14%[46.1 µM] and Cruzain noTriton 5%.
`O=C(NN=C1CCC(c2ccccc2)CC1)c1ccccc1-n1cccc1` (stereo not given) gave 2A StopGo -4%, SARS PLpro yeast -23%, Cruzain inh Det -1.0%, LASV entry inh -4%, Cruzain noTriton -4%, RE007 growth inh -4%, MARV entry inh -4% and NS1 inh 17%.
For CC1CCc2c(C(=O)Nc3nccs3)csc2C1 (stereo not given) the results were 2A StopGo 32%[activator], SARS PLpro yeast -28%, Cruzain inh Det -7.2%, LASV entry inh 26%, Cruzain noTriton 7%, RE007 growth inh inconclusive, MARV entry inh inconclusive and NS1 inh -156%.
`Cn1cc([N+](=O)[O-])c(C(=O)NCc2cc3cc(Cl)ccc3[nH]2)n1` gave 2A StopGo inconclusive, SARS PLpro yeast -1%, Cruzain inh Det -3.0%, LASV entry inh inconclusive, Cruzain noTriton 10%, RE007 growth inh 13%, MARV entry inh -11% and NS1 inh 14%.
CCCCNc1nc2ccccc2nc1NS(=O)(=O)c1cccs1 was read as 2A StopGo 5%, SARS PLpro yeast -1%, Cruzain inh Det -10%, LASV entry inh inconclusive, Cruzain noTriton -4%, RE007 growth inh -8%, MARV entry inh inconclusive and NS1 inh 2%.
For Cc1ccc(N/N=C/c2ccc(N3CCOCC3)cc2)cc1C the results were 2A StopGo 22%, SARS PLpro yeast 9%, Cruzain inh Det -2.5%, LASV entry inh 18%, Cruzain noTriton -12%, RE007 growth inh 22%, MARV entry inh 0% and NS1 inh 1%.
For Cc1cc(C(=O)NN)c(C)o1 the results were 2A StopGo 4%, SARS PLpro yeast 1%, RE007 growth inh 21% and NS1 inh -6%.
`Cc1cccc(NC(=O)CNC(=O)CN2C(=O)NC3(CCCc4ccccc43)C2=O)c1C` (stereo not given) gave 2A StopGo -19%, SARS PLpro yeast 1%, LASV entry inh inconclusive, RE007 growth inh 5% and MARV entry inh 6%.
`COc1ccc(OC)c(NC(=O)COC(=O)c2nc(Cl)ccc2Cl)c1` gave 2A StopGo -8%, SARS PLpro yeast 0%, LASV entry inh -1%[46.1 µM], RE007 growth inh 7%, MARV entry inh 17%[46.1 µM] and NS1 inh -37%.
CCCCCOC(=O)Nc1ccc(S(=O)(=O)Nc2cccc([N+](=O)[O-])c2)cc1 was read as 2A StopGo 2%, SARS PLpro yeast 8%, Cruzain inh Det -8.8%, LASV entry inh 8%, Cruzain noTriton -5%, RE007 growth inh 7%, MARV entry inh inconclusive and NS1 inh 12%.
O=C(CCCSc1nnc(SCCCC(=O)c2ccc(F)cc2)s1)c1ccc(F)cc1 was read as SARS PLpro yeast 10%, Cruzain inh Det 5.1%, LASV entry inh inconclusive, Cruzain noTriton -6%, RE007 growth inh 8%, MARV entry inh inconclusive and NS1 inh 13%.
Screening Cc1nc2c3ccccc3nc(NNC(=O)CCC(=O)O)n2n1 returned 2A StopGo -18%, Cruzain inh Det 1.4%, LASV entry inh 18%[46.1 µM], Cruzain noTriton 9% and MARV entry inh inconclusive.
O=C(CSc1nnc(-c2ccccc2F)o1)N1CCc2ccccc21 was read as 2A StopGo 9%, Cruzain inh Det -2.0%, LASV entry inh 12%[46.1 µM], Cruzain noTriton -1% and MARV entry inh 6%[46.1 µM].
For Cc1cc(NC(=O)CCN2CCN(CCO)CC2)ccc1Br the results were 2A StopGo -3%, SARS PLpro yeast 4%, LASV entry inh inconclusive, RE007 growth inh 3%, MARV entry inh -4%[46.1 µM] and NS1 inh -27%.
For COc1ccc(C(=O)N2CCC(CCC(=O)Nc3cccc(C)c3)CC2)cc1 the results were 2A StopGo -2%, SARS PLpro yeast -1%, LASV entry inh 1%, RE007 growth inh 6%, MARV entry inh inconclusive and NS1 inh 2%.
Screening O=C(CCNS(=O)(=O)c1ccccc1)OCc1nc2ccsc2c(=O)[nH]1 returned 2A StopGo -10%, SARS PLpro yeast -8%, LASV entry inh 14%, RE007 growth inh -31% and MARV entry inh -3%.
For CCCc1ccc(OCc2nc(-c3ccc(NC(=O)c4ccco4)cc3)no2)cc1 the results were 2A StopGo 21%, SARS PLpro yeast -7%, Cruzain inh Det 2.7%, LASV entry inh 10µM*, Cruzain noTriton -1%, RE007 growth inh -10%, MARV entry inh inconclusive and NS1 inh -11%.
O=C(COC(=O)C1C2CC3OC(=O)C1C3C2)Nc1ccc(Cl)cc1 (stereo not given) was read as 2A StopGo 12%, SARS PLpro yeast 0%, LASV entry inh -18%[46.1 µM], RE007 growth inh 8%, MARV entry inh -2%[46.1 µM] and NS1 inh -8%.
For CC1CCCCC12NC(=O)N(CC(=O)Nc1ccc(N3CCCCC3)cc1)C2=O (stereo not given) the results were 2A StopGo -6%, SARS PLpro yeast -11%, LASV entry inh inconclusive, RE007 growth inh 5% and MARV entry inh 6%.
`CCCn1c(N2CCN(C(=O)Nc3ccc(Cl)cc3)CC2)nc2ccccc21` gave 2A StopGo inconclusive, SARS PLpro yeast -1%, LASV entry inh -19%, RE007 growth inh -10%, MARV entry inh inconclusive and NS1 inh 0%.
Screening CCC(=O)NNC(=O)c1c(O)c2ccccc2[nH]c1=O returned 2A StopGo 51%[activator], SARS PLpro yeast 0%, LASV entry inh 1%[46.1 µM], RE007 growth inh 5% and MARV entry inh 22%[46.1 µM].

Screening data from PubChem.
